Compound activity from PubChem.
HNF4A DNA FP = change in binding of human HNF4 alpha to DNA. HNF4a-FITC DNA binding, fluorescence polarization, 1 h. activity change, % at 10 µM. P41235. 0.3% of 360,000 active; in the data active = activity change above about 30%, passing the limit was not always enough;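 note: controls were the assay level and a saturating level of protein; the project sought stronger binding though the title names inhibitors; some compounds called inactive have numbers as strong as hits; positive values seem to mean higher polarization but the record does not say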
Calb FLC = C. albicans growth modulation with fluconazole; C. albicans CaCi-2 (fluconazole-resistant clinical isolate) + fluconazole, Alamar Blue growth, 48 h; growth inhibition, % (no concentration beside the values); 0.57% of 300,000 active;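 active = most replicates above 75%; inconclusive = exactly half above 75%; inactive = most below 75%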;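 note: all wells also contain fluconazole at 8 µg/ml as a sub-toxic cotreatment; 0% = median of DMSO wells and 100% = median of geldanamycin control wells; wells of about 8 µL received 7.5 nL stock; the first replicate is given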
Vif A3G = inhibitors of Vif binding to APOBEC3G peptide, primary screen, biochemical, TR-FRET, GST-Vif 1-94, biotin-A3G peptide, dose response retest (AID 1117319); TR-FRET GST-Vif / biotin-A3G peptide binding; higher % means a stronger effect; test concentration not given here; strong numbers were not always called active; inhibition, %, or IC50 in µM where a hit was titrated; 0.57% of 260,000 active;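 active = above the screen mean plus three standard deviations and confirmed in dose response; inconclusive = results disagree or hit not tested in dose response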;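 note: Vif residues 1-94 fused to GST binding biotinylated APOBEC3G peptide 110-148; 0% = full assay without inhibitor and 100% = GST in place of GST-Vif; retest series ran down from 100 µM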
LANA-H2B inh = blocks KSHV LANA binding to histone H2A/H2B; Q9QR71; inhibition, % (test concentration not listed); 0.6% of 320,000 active; cell-free LANA-H2A/H2B peptide, fluorescence polarization; in the data active = inhibition mostly above about 10%, no sharp cut-off; inactive = mostly below about 6.7%;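 note: stock transfer was 7.5 nL into about 10 µL; 0% = median of vehicle wells and 100% = median of positive control wells; one replicate is shown; the record names a cut of 25% in any replicate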
Target sequence (Q9QR71 whole entry, looked up): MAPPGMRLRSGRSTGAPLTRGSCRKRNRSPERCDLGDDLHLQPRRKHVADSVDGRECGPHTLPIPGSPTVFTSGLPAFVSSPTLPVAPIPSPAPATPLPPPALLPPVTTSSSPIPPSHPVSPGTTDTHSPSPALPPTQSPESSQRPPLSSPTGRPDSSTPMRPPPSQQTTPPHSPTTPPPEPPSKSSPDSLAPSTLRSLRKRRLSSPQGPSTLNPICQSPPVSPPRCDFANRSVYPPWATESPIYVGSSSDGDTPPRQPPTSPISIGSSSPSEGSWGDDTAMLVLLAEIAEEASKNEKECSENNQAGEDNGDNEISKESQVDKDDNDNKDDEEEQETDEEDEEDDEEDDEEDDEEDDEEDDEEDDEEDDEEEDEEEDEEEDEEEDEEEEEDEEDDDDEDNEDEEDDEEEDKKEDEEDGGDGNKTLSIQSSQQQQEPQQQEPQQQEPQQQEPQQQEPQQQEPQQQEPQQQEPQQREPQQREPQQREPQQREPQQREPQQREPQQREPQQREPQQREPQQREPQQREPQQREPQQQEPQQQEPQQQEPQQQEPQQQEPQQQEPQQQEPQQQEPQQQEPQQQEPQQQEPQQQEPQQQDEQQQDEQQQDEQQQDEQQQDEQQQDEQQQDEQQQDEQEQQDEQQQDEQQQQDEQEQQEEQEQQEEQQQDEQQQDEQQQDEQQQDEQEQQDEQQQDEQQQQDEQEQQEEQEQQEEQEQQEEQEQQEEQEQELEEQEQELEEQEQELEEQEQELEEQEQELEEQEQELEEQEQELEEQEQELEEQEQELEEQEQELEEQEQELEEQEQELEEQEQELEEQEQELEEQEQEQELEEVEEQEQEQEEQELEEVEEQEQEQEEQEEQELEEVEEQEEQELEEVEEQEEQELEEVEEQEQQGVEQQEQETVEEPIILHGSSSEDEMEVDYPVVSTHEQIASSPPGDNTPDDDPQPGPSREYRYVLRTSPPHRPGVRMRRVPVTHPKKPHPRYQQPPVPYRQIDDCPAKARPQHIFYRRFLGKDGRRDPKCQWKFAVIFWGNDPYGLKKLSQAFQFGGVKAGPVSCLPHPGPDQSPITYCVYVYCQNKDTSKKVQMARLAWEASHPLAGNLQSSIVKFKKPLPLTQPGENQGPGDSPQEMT
RanGTP-Impb inh = inhibitors of RanGTP-importin-beta interaction, primary screen, biochemical, FRET, CFP-Ran, YFP-importin-beta, homogeneous; AID 2216; cell-free CFP-Ran/YFP-importin-beta FRET ratio; 1.1% of 300,000 active; inhibition, % (test concentration not listed);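 active = most replicates above 15%; inconclusive = exactly half above 15%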;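 note: 0% = DMSO wells and 100% = Ran loaded with GDP instead of GTP; wells of about 40 µL received 100 nL stock; the first replicate is given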
B2AR ag = agonists of human beta-2 adrenergic receptor inducing internalization; Am2.2-beta2AR cells, FAP receptor internalization, flow cytometry; reference of the scale not given here; P07550; 0.43% of 340,000 active; response, % (test concentration not listed);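 active = response above a set limit, near 3 SD of response in nonfluorescent compounds, cut at about 42% in these data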;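 note: stock transfer was 100 nL into about 11 µL; a reference agonist was the positive control; negative values mostly stem from fluorescent compounds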
ALR H2O2 inh = blocks human ALR sulfhydryl oxidase activity; P55789; purified ALR, DTT oxidation, H2O2 HRP-luminol luminescence; inhibition, % (no concentration beside the values); 3.8% of 290,000 active;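 active = mean and each replicate at 75% or more; inconclusive = only one of the two met; inactive = neither met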;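 note: stock transfer was 7.5 nL into about 7.5 µL; 0% = neutral wells and 100% = wells with inactivated enzyme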
* hit, by the source's call; ? = inconclusive; . = not tested or not shown; & = joins results of further samples. Not a hit list, and some 6.3% of all compounds hit somewhere here.

molecule,HNF4A DNA FP,Calb FLC,Vif A3G,LANA-H2B inh,RanGTP-Impb inh,B2AR ag,ALR H2O2 inh
CCOCC(=O)Nc1ccc(-c2cn3cccnc3n2)cc1,1.7,-1.8,-3.7%,-3.4,2.8,-3.3,-10.6
N#Cc1nc(COc2ccc(Cl)cc2Cl)oc1N1CCOCC1,-0.4,-27.8,72.2%,-2.8,1.7,-10.0,-11.6
COc1cccc(NC(=O)CSC2=C(C#N)C(c3ccco3)C3=C(CCCC3=O)N2)c1 (centres undefined),-7.4,-4.7,9.5%,-0.9,1.4,15.7,59.3
CCOC(=O)c1c(C)[nH]c(C(=O)OCC(=O)Nc2cc(C)c(Cl)cc2OC)c1C,-2.2,-3.5,-5.0%,-0.5,-2.9,37.9,0.4
CCN(CC)S(=O)(=O)c1ccc(C(=O)Nc2nnc(CSC)o2)cc1,0.5,-18.4,-4.5%,-1.7,2.6,1.8,91.0*
CC(=O)c1csc(-c2cccc(-c3nc4ccc(Cl)cn4c3NC3CCCCC3)c2)c1,3.9,-4.2,.,-2.6,6.7,23.5,5.4
CCN(C(=O)CN1CCN(c2ccc(O)cc2)CC1)c1c(N)n(Cc2ccccc2)c(=O)[nH]c1=O,2.1,28.4,16.4µM*,-1.4,-0.8,8.8,.
N=C(N)SCc1ccc(O)c([N+](=O)[O-])c1,-1.6,0.1,24.1%,2.9,4.0,0.2,.
O=S(=O)(c1ccc2c(c1)OCCO2)N1CCN(S(=O)(=O)c2c(F)cc(F)cc2F)CC1,-4.5,.,.,-1.1,.,-1.3,-2.3
COc1ccc2nc(Cl)c(/C=N/Nc3ccccn3)cc2c1,-0.2,-1.9,?,3.3,1.7,4.6,-20.6
CC[C@H](C)NC(=O)c1ccc(Cn2c(=S)[nH]c3c([nH]c4ccc(OC)cc43)c2=O)cc1,-2.0,-0.9,.,-5.0,4.1,3.5,0.1
CN(C(=O)c1ccc(=O)n(Cc2ccc(Cl)cc2)c1)c1ccccc1,-3.4,-7.4,18.2%,-3.3,-0.4,-0.5,-11.9
CCOC(=O)CSc1n[nH]c(NC(=O)CC)n1,1.9,-9.8,1.8%,-4.7,-2.8,3.0,.
O=C(COc1ncnc2c(Cl)cc(Cl)cc12)NC1CCCCCC1,2.4,6.0,?,0.9,-4.6,2.8,-0.3
CC1(C)CN2C(=O)c3ccccc3C2(C)S1 (centres undefined),-6.3,1.6,-0.8%,-2.7,-1.6,-4.1,-22.2
CC1(C)CC(=NNC(=O)c2n[nH]c3c2CCC3)CC(C)(C)N1,1.1,1.3,-7.9%,-2.8,0.2,-4.0,-5.0
CSc1ccc(S(=O)(=O)NC2CCCCC2)cc1,1.9,-11.8,-3.9%,-13.3,5.0,-6.2,.
CCOC(=O)C[C@H]1c2ccc(C(F)(F)F)cc2S(=O)(=O)N1Cc1ccccc1,0.9,-13.7,.,0.3,4.9,-7.8,.
COc1cccc(C2CC(=O)Nc3c2c(=O)[nH]c2ncnn32)c1 (centres undefined),3.9,-16.9,-0.8%,0.3,-0.8,-4.0,1.5
CN(C)CC1CCCCC1OC(=O)/C=C/c1ccc(Cl)cc1Cl (centres undefined),5.6,-6.3,9.1%,-0.8,1.5,-4.0,-21.7
CCOc1ccc(NC(=O)CCCNC(=O)Cn2cnc3sc(C)c(C)c3c2=O)cc1,-0.7,-12.2,.,5.1,-1.1,-6.0,1.5
CCOC(=O)c1csc(NC(=O)CN2CCN(C)CC2)n1,0.1,-7.2,-4.0%,-2.6,1.7,-0.7,0.2
Cc1ccc(-c2cc(C(=O)O)c3ccccc3n2)c(C)c1,-1.1,23.5,-7.0%,2.2,-0.4,8.6,-0.6
Cc1ccc(S(=O)(=O)NCCNS(=O)(=O)c2ccccc2Br)cc1,-0.7,.,-4.5%,.,.,-1.6,.
CCn1cc(/C=C(\NC(=O)c2ccc(OC)c(OC)c2)C(=O)NCCCO)c2ccccc21,4.3,10.1,.,-3.3,-2.3,1.1,19.8
COc1ccc(NC(=O)/C(=C\c2ccc(OS(=O)(=O)c3ccc(C)cc3)cc2)NC(=O)c2ccccc2)cc1,0.7,28.6,-6.2%,-4.0,6.2,8.2,-3.2
Cc1cc(C)cc(NS(=O)(=O)c2ccc(NC(=S)NC(=O)c3cccs3)cc2)c1,-2.8,-3.8,.,-1.5,-1.6,10.4,-4.6
CC(C)(C)NC(=S)NC(=O)C12CC3CCC(CC(C3)C1)C2,1.3,-38.0,-8.2%,0.0,1.2,-5.9,38.5
CNC(=O)CSCc1cnn(-c2ccccc2)c1-n1cccc1,0.5,-16.5,6.4%,0.8,-0.7,5.8,-0.5
CNc1snc(C)c1C(=O)OCC(=O)NCc1ccccc1OC,1.5,.,-5.2%,6.2,.,1.4,4.0
CCN(CC)c1ccc(NC(=O)c2cc3ccccc3o2)c(C)c1,1.5,7.8,2.4%,2.0,6.0,-0.6,53.4
O=C(CC1SC(=O)N(Cc2ccccc2Cl)C1=O)Nc1nccs1 (centres undefined),0.4,1.4,30.7%,-1.5,5.4,-11.3,.
Cc1ccccc1C(N)c1ccncc1 (centres undefined),-1.2,0.2,.,-2.6,-2.3,-5.5,-17.1
CCC(C)(C)NC(=O)C(c1cccs1)N(CC1CCCO1)C(=O)Cn1nnc2ccccc21 (centres undefined),2.0,11.4,0.1%&-11.3%,7.8,-2.9,-3.5,.
CCOC(=O)c1oc2ccc(CNC3CCCCC3)c(Cl)c2c1C,5.0,-38.5,0.7%,-6.1,2.8,23.4,-2.1
Cc1cc(C(=O)NNc2c(Cl)cccc2Cl)no1,0.0,-2.4,-12.9%,3.3,4.7,-2.4,16.3
CCCCn1c(=O)c(CCC(=O)OCC(=O)Nc2ccc(C)c(Cl)c2)nc2ccccc21,.,-2.1,.,-1.6,3.1,.,-1.1
CCN(CC(=O)NCC1CCCO1)S(=O)(=O)c1ccc2ccccc2c1 (centres undefined),-1.1,-1.2,.,1.5,1.4,-9.1,-4.5
Cc1cc(=O)[nH]c(-n2[nH]c3c(c2=O)CCCC3)n1,4.0,?,?,-3.0,-7.8,-1.3,32.7
Nc1cc2c(cc1[N+](=O)[O-])OCCO2,-2.6,-0.2,-4.2%,0.6,-10.6,-1.2,-26.1
CCCCn1c(SCC(=O)N2c3ccccc3CCc3ccccc32)nc2c1c(=O)n(C)c(=O)n2C,-0.6,-4.0,-6.3%,0.6,5.2,12.0,-2.0
CC1CCCC(NC(=O)COC(=O)c2ccc([N+](=O)[O-])o2)C1C (centres undefined),0.2,.,-3.7%,-1.3,.,-1.2,-14.5
O=C(c1cccc(Br)c1)N1CCN(S(=O)(=O)N2CCCCC2)CC1,1.3,4.9,.,.,0.1,4.6,-13.1
CC(=O)N1c2ccc(S(=O)(=O)N3CCCC(C(=O)NC4CCCC(C)C4C)C3)cc2CC1C (centres undefined),1.9,-4.8,-5.8%,9.9,-0.9,-2.3,-2.2
CCCSc1nc2sc3c(c2c(=O)[nH]1)CC(C)CC3 (centres undefined),1.7,1.7,18.6%,-2.7,1.6,0.5,-6.9
COc1ccccc1NC(=O)c1sc2ncn(CC(=O)Nc3ccccc3)c(=O)c2c1C,11.0,-4.4,.,-8.9,3.5,-8.7,.
Cc1ccc(NC(=O)COc2ncnc3ccccc23)cc1S(=O)(=O)N1CCOCC1,2.8,-10.5,-5.8%,-4.8,1.3,-8.3,-4.7
Cc1cccc(C)c1NC(=O)CN1CCN(CC(=O)c2cc(C)n(C3CC3)c2C)CC1,0.7,.,-1.0%,-5.1,.,5.1,19.1
CCNC(=S)Nc1cc2oc3ccccc3c2cc1OC,2.0,-9.1,.,0.8,4.8,9.8,68.6
COc1ccccc1COC(=O)C(NC(=O)c1ccc(C)cc1)C(C)C (centres undefined),5.5,.,-4.5%,.,.,3.9,.
Cc1ccccc1CN(C)C(C)C(=O)NCc1ccccc1 (centres undefined),-3.5,4.3,-3.2%,4.2,-1.4,-5.6,2.7
O=C(N/N=C/c1ccc(N2CCOCC2)cc1)c1ccccc1NS(=O)(=O)c1cccs1,2.1,7.7,31.5%,-0.3,6.4,4.7,.
CCCn1c(SCC(=O)NC2CCCCC2)nnc1-c1cccnc1,-2.6,-13.2,.,-1.4,-0.5,-5.4,2.6
CC(C)(C)C(=O)O/N=C(\N)c1ccc(Br)cc1,4.6,-7.6,-6.3%,-0.3,-3.3,-7.3,-5.3
O=C(c1ccc(F)cc1)C1CCN(C(=O)Nc2ccccc2Cl)CC1,0.3,20.8,?,-4.3,3.0,-8.8,-5.3
COC(=O)[C@H](CC(C)C)NC(=O)CCc1nnc(COc2ccccc2)o1,-7.9,-36.3,16.1%,-6.2,-2.1,3.6,-4.6
COc1ccc(N2N=NN(C(C)C)C2=C(Cl)c2nnnn2-c2ccc(OC)cc2)cc1,5.3,.,5.3%,.,.,-4.8,.
COc1ccc(OCc2nc(N)nc(Nc3ccccc3)n2)cc1,-3.1,1.6,1.2%,-1.6,-6.3,-11.0,.
Cc1cccc(NC(=O)NC2CCCc3ccccc32)c1 (centres undefined),-3.3,0.5,.,-0.7,-3.3,2.0,2.3
Cc1oc(-c2ccccc2F)nc1CN1CCC(C(=O)NC2CC2)CC1,2.1,5.3,6.2%,-0.6,2.0,-6.9,7.0

(more compounds)
molecule,HNF4A DNA FP,Calb FLC,Vif A3G,LANA-H2B inh,RanGTP-Impb inh,B2AR ag,ALR H2O2 inh
CCOC(=O)c1c(C)[nH]c(C(=O)COC(=O)c2ccncc2)c1C,6.1,-11.1,-5.9%,0.1,3.3,-6.0,-12.1
Cn1c(N)c(C(=O)COC(=O)c2ccc3c(c2)C(=O)N(c2ccc(Cl)cc2)C3=O)c(=O)n(C)c1=O,6.5,1.9,4.8%,-5.6,0.3,8.4,3.5
CCOC(=O)c1cc(CC)sc1NC(=O)CN1CCN(C(=O)c2ccco2)CC1,0.8,-1.4,8.4%,-4.6,2.0,-8.2,46.2
O=C(CSc1nnc(NC(=O)c2ccco2)s1)Nc1cccc(F)c1,2.2,27.9,.,4.2,-2.9,-1.7,-5.5
O=C(/C=C/Nc1ccccc1)c1cnc(-c2ccccc2)s1,2.0,-1.7,17.5%,0.8,-17.1,-3.2,-0.9
CC(C)CNS(=O)(=O)c1ccc(OCC(=O)NCc2ccco2)cc1,-0.3,0.2,.,0.1,1.8,-1.8,-4.1
Cc1ccc(C(=O)NCC(=O)NNC(=O)CN(C)S(=O)(=O)c2ccc(Cl)cc2)s1,-1.5,.,-6.4%,-1.9,-1.2,2.1,1.5
O=C(Nc1ccccc1)c1ccccc1O,0.7,-3.7,1.9%,1.3,-0.1,-2.6,18.5
COc1ccc2nc(NC(=O)c3cc(S(=O)(=O)N4CCOCC4)ccc3C)sc2c1,-2.9,4.2,1.6%,-1.5,0.3,1.5,-7.6
CC(=O)Nc1ccc(C2CC(c3ccc(Cl)cc3)=NN2c2ccccc2)cc1 (centres undefined),-2.2,-78.8,.,-8.2,0.8,9.0,-1.3
CC(C)(C)[C@@H]1COC(=O)[C@H](Cc2ccc(F)cc2)C/C=C\C[C@H](CC(=O)N(CCO)Cc2ccccc2)C(=O)N1,2.7,.,.,2.1,.,3.0,-8.5
COc1ccc(NC(=S)NCc2cccs2)cc1,-1.9,-1.8,0.5%,1.1,6.0,-2.2,-3.3
CC(C)(C)CC(C)(C)NC(=S)Nc1ccc2nc(-c3ccccn3)c(-c3ccccn3)nc2c1,26.7,-20.7,-17.5%&30.9%,-0.3,-25.7,8.8,-14.4
